Compound activity as filed in PubChem BioAssay.
TRPML1 blocker: blocks the human TRPML1 channel; activity change, negative = inhibition, % (no concentration beside the values); TRPML1-inducible cells, Ca2+ dye fluorescence, FDSS; active compounds read low; inhibition of EC80 agonist-evoked calcium signal; AID 624415; 390,000 tested, 0.02% active; in the data active means activity change below about -50%; inconclusive means about -30% to -50%; inactive means above about -30%;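 further: stimulus is agonist 54-4 at its EC80 concentration; on the % scale 0 is the no-effect control and ±100 the full control effect; compound concentration not given in the record; the text of the record puts the active cut at -80%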
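Tet-induced TRPML1-DL cells loaded with Ca8 no-wash calcium dye were read kinetically on FDSS. Compound addition was followed by EC80 agonist 54-4 (4 uM final); inhibition was read over 110 s.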
TRPML1 ag: activates the human TRPML1 channel; Q9GZU1; TRPML1-expressing cells, Ca2+ dye fluorescence, FDSS; host cell line not named in the record; reference of the full effect not given here; activation, % (no concentration beside the values); 410,000 tested, 0.12% active; in the data active = activation above about 50%; inconclusive = about 30% to 50%; inactive = below about 30%; further: 0% is about no effect; the text of the record puts the active cut at 80%
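In this qHTS format, compounds were pin-transferred onto Ca8-dye-loaded TRPML1-DL cells induced with Tet overnight, and intracellular Ca2+ fluorescence was recorded kinetically for 110 s after a 10 s baseline. A subsequent 4uM final 54-4 (EC80) addition followed by a second 110 s read served as the antagonist phase.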
CtBP-E1A inh: inhibitors of CtBP/E1A interaction. AlphaScreen GST-E1A/His-CtBP binding, 1536-well; active compounds read low; control for the full effect not named in the record. activity change, % (concentration not given with the values). 340,000 tested, 0.49% active. AID 651724; in the data active means activity change below about -65%; inconclusive means about -30% to -65%; inactive means above about -30%; further: on the % scale 0 is the no-effect control and ±100 the full control effect
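GST-E1A and His-tagged CtBP (125 nM each as 5X stock) were preincubated with pin-transferred compound for 2 h at 37 °C in the dark, then glutathione donor and nickel acceptor beads were added for 1 h before AlphaScreen reading.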
TRPV1 potentiator: enhances activation of the human vanilloid receptor TRPV1; Q8NER1; TRPV1-expressing cells, Fluo-8 calcium influx, capsaicin EC20 potentiation; host cell line not named in the record; control for the full effect not named in the record; potentiation, % at 8.33 µM; 320,000 tested, 0.02% active; AID 540277; active means potentiation above 80%; inconclusive means 30% to 80%; inactive means below 30%; further: 0% is about no effect
Target sequence (Q8NER1 whole entry, looked up): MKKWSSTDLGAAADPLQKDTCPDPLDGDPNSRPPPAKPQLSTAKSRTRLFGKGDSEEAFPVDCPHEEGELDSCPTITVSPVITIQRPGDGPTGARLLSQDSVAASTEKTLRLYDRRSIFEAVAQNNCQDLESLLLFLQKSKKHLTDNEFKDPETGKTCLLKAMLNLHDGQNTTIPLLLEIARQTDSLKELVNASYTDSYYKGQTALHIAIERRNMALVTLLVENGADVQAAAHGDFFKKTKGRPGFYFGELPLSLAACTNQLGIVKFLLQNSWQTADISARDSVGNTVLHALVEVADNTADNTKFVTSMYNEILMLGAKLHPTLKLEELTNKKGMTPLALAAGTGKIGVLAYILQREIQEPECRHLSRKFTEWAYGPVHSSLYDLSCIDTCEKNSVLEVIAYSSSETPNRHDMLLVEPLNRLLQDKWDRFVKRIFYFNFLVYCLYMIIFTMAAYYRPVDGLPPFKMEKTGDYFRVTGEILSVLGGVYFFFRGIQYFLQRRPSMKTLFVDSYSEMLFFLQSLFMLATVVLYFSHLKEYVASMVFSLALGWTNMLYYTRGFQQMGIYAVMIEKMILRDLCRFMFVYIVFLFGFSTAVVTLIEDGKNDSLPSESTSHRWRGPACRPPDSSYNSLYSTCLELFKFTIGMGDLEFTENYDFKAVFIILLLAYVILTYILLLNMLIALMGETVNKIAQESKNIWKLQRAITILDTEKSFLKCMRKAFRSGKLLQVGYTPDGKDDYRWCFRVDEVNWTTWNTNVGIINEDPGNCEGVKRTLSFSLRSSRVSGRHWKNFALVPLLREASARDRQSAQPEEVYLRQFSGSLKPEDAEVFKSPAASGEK
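TRPV1-expressing cells were cultured overnight at 35.5C and loaded with Fluo-8 calcium dye for 40 to 90 min at room temperature. After a 10 s baseline, compound was added and calcium influx was read kinetically for 3 min (ex 480/em 520 nm).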
D2 PAM: positive allosteric modulators of human D2 dopamine receptor; P14416; DiscoveRx D2 beta-arrestin cells, luminescence, 90 min; 100% = 57 uM dopamine signal; potentiation, % (no concentration beside the values); 360,000 tested, 0.23% active; AID 624464; active = potentiation of 50% or more; inconclusive = 30% to 50%; inactive = 30% or less;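 further: compound concentration not given in the record; tested on top of an EC20 dose of dopamine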
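PathHunter beta-arrestin assay in DiscoveRx D2 cells. Compounds were added with an EC20 of dopamine (50 nM final) for 90 min at 37 deg C. Luminescence was read 1 h after detection reagent, with 57 uM dopamine as the EC100 control.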
Six1-Eya2 blk: inhibitors of human Six1/Eya2 interaction | activity change, % (concentration not given with the values) | 360,000 tested, 0.56% active | AlphaScreen GST-Six1/His-Eya2 binding, biochemical; active compounds read low; control for the full effect not named in the record; in the data active = activity change below about -65%; inconclusive = about -30% to -65%; inactive = above about -30%; further: on the % scale 0 is the no-effect control and ±100 the full control effect
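Six1/Eya2 binding was read as AlphaScreen signal after compounds were pinned into GST-Six1 plus His-tagged Eya2 (5X stock 250/500 nM) in pH 8.0 Tris/NaCl/TCEP buffer, beads added, then incubated 1 h, 37 C, dark.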
An asterisk follows results filed as active; ? = inconclusive; . = not tested or not shown.

1) CCC(c1nnnn1C1CCCCC1)N(Cc1ccco1)Cc1cc2ccc(OC)cc2[nH]c1=O (centres undefined)
2) CCOc1cccc(C2C(C(=O)c3ccc(C)o3)=C(O)C(=O)N2Cc2ccncc2)c1 (centres undefined)
3) Cc1ccc(S(=O)(=O)N2CCN(C(=O)COC(=O)CCOc3ccc(C(C)(C)C)cc3)CC2)cc1
4) COCc1ccccc1C1=CC(=O)C[C@H](c2ccc(OC)cc2)C1
5) Cc1ccc(NC(=O)CSc2nc(=O)n(CCN(C)C)c3c2CCCC3)cc1Cl
6) CCOC(=O)Cc1csc(NS(=O)(=O)c2cc(Cl)ccc2Cl)n1
7) O=C(OCCCc1cc2ccccc2c(=O)o1)c1ccc2c(c1)OCO2
8) CN(CCOc1ccccc1)CC(O)COCc1ccccc1F (centres undefined)
Screen / compound no. | 1 | 2 | 3 | 4 | 5 | 6 | 7 | 8
TRPML1 blocker | 36 | 3 | 13 | -5 | -6 | 26 | 11 | 9
TRPML1 ag | 0.1 | -0.1 | -0.1 | -0.2 | 0.6 | -0.6 | 1.4 | 0.1
CtBP-E1A inh | -1 | 0 | ? | 2 | -11 | -1 | -18 | 7
TRPV1 potentiator | -7 | 30 | 26 | -8 | 0 | 15 | -9 | 4
D2 PAM | 24 | -4 | -5 | 4 | -13 | 7 | -3 | -24
Six1-Eya2 blk | 5 | 4 | -9 | 1 | -6 | -14 | 9 | 6

Rewritten with values under each structure: four of the compounds above.
Values run as follows: TRPML1 blocker	TRPML1 ag	CtBP-E1A inh	TRPV1 potentiator	D2 PAM	Six1-Eya2 blk
4	COCc1ccccc1C1=CC(=O)C[C@H](c2ccc(OC)cc2)C1
    -5	-0.2	2	-8	4	1
5	Cc1ccc(NC(=O)CSc2nc(=O)n(CCN(C)C)c3c2CCCC3)cc1Cl
    -6	0.6	-11	0	-13	-6
6	CCOC(=O)Cc1csc(NS(=O)(=O)c2cc(Cl)ccc2Cl)n1
    26	-0.6	-1	15	7	-14
7	O=C(OCCCc1cc2ccccc2c(=O)o1)c1ccc2c(c1)OCO2
    11	1.4	-18	-9	-3	9

Two entries from above in another layout:
Values run as follows: TRPML1 blocker	TRPML1 ag	CtBP-E1A inh	TRPV1 potentiator	D2 PAM	Six1-Eya2 blk
4) COCc1ccccc1C1=CC(=O)C[C@H](c2ccc(OC)cc2)C1
    -5	-0.2	2	-8	4	1
5) Cc1ccc(NC(=O)CSc2nc(=O)n(CCN(C)C)c3c2CCCC3)cc1Cl
    -6	0.6	-11	0	-13	-6

(next part)
9) COc1cccc(-c2ccc(NC(=O)C3CCCN(Cc4cnc(N(C)C)s4)C3)cc2)c1 (centres undefined)
10) COc1ccc(C2(C)NC(=O)N(CC(=O)Nc3ccc(Br)cc3F)C2=O)cc1OC (centres undefined)
11) CC(C)[C@H](NC(=O)N1c2ccccc2NC(=O)[C@@H]1C(C)C)C(=O)N[C@@H](C(=O)O)c1ccccc1
12) COc1cccc(NC(=O)CC2C(=O)NC3CCCCC3N2C(=O)c2ccccc2)c1 (centres undefined)
13) CN1CCC(N(C)C(=O)c2ccc(Cl)c(S(=O)(=O)N3CCc4ccccc43)c2)CC1
14) Nn1c(COc2ccccc2)nnc1SC(F)F
15) COC(=O)/C=C1\NC(=O)C(C)S1 (centres undefined)
16) O=C(NCc1nnc2c3ccccc3c(-c3ccccc3)nn12)c1ccc(Cl)cc1
Screen / compound no. | 9 | 10 | 11 | 12 | 13 | 14 | 15 | 16
TRPML1 blocker | 15 | 24 | . | 4 | -3 | -6 | 20 | 8
TRPML1 ag | 1.5 | -0.4 | . | -0.4 | -0.4 | -0.8 | 0.0 | 2.4
CtBP-E1A inh | . | 3 | 5 | 3 | -21 | 20 | 1 | -8
TRPV1 potentiator | -2 | 9 | 0 | . | . | 2 | 0 | -13
D2 PAM | -18 | 1 | -25 | -4 | -9 | -5 | 0 | 29
Six1-Eya2 blk | -18 | -2 | 6 | 19 | -3 | 5 | 0 | -4

17) CSc1nccc(-c2cc(Cl)sc2Cl)n1
18) CCOc1ccc(NCc2cccn2-c2nnc(N3CCC(C(=O)NCCCN4CCCCC4CC)CC3)s2)cc1 (centres undefined)
19) Nc1nc(/C=C/c2cccnc2)nc(-c2ccccc2O)n1
20) CCC1CCCCN1C(=O)c1cc(COc2ccc(-n3cncn3)cc2)on1 (centres undefined)
21) Cc1nc(N2CCN(C(=O)c3ccc(Cl)cc3)CC2)c(C#N)c2c1COC(C)(C)C2
22) COc1ccc(Cl)cc1NC(=O)COC(=O)CCCC1=NS(=O)(=O)c2ccccc2N1
23) CC(Sc1nnc(Cc2ccc3c(c2)OCO3)o1)C(N)=O (centres undefined)
24) Cn1cnnc1SCCC(=O)Nc1ccccc1
Screen / compound no. | 17 | 18 | 19 | 20 | 21 | 22 | 23 | 24
TRPML1 blocker | -3 | 18 | -15 | 0 | -22 | -4 | -4 | 3
TRPML1 ag | -0.9 | 1.2 | -1.3 | -0.4 | 0.4 | 0.0 | -0.7 | -0.3
CtBP-E1A inh | 29 | . | -6 | 4 | -6 | -9 | -15 | 5
TRPV1 potentiator | -4 | 10 | 8 | -3 | 1 | 8 | 2 | 2
D2 PAM | -7 | -13 | 12 | 5 | -5 | -26 | 6 | -1
Six1-Eya2 blk | 28 | ? | -4 | 2 | -9 | -1 | -5 | 3

Five entries picked at random from those above, as already listed:
13) CN1CCC(N(C)C(=O)c2ccc(Cl)c(S(=O)(=O)N3CCc4ccccc43)c2)CC1
6) CCOC(=O)Cc1csc(NS(=O)(=O)c2cc(Cl)ccc2Cl)n1
22) COc1ccc(Cl)cc1NC(=O)COC(=O)CCCC1=NS(=O)(=O)c2ccccc2N1
11) CC(C)[C@H](NC(=O)N1c2ccccc2NC(=O)[C@@H]1C(C)C)C(=O)N[C@@H](C(=O)O)c1ccccc1
16) O=C(NCc1nnc2c3ccccc3c(-c3ccccc3)nn12)c1ccc(Cl)cc1
Screen / compound no. | 13 | 6 | 22 | 11 | 16
TRPML1 blocker | -3 | 26 | -4 | . | 8
TRPML1 ag | -0.4 | -0.6 | 0.0 | . | 2.4
CtBP-E1A inh | -21 | -1 | -9 | 5 | -8
TRPV1 potentiator | . | 15 | 8 | 0 | -13
D2 PAM | -9 | 7 | -26 | -25 | 29
Six1-Eya2 blk | -3 | -14 | -1 | 6 | -4

Continuation.
25) O=C(Cn1c(=O)[nH]c2sc3c(c2c1=O)CCCC3)NCC1CCCO1 (centres undefined)
26) O=C(CSc1ncnc2sccc12)N1CCCCC1
27) Cc1cc(=O)cc(C)[nH]1
28) COc1ccc(CCC(C)NC2C3CC4CC(C3)CC2C4)cc1 (centres undefined)
29) CC(=O)Nc1nc(NCc2ccccc2Cl)n(-c2ccccc2)n1
30) c1ccc(CC[C@@H]2CC[C@@H](CCc3ccccc3)N2)cc1
31) CCCN(CCC)S(=O)(=O)c1ccc(C(=O)N2CCN(C)CC2)cc1
32) Cn1nc([N+](=O)[O-])c(C(C#N)c2ccccn2)c(Cl)c1=O (centres undefined)
Screen / compound no. | 25 | 26 | 27 | 28 | 29 | 30 | 31 | 32
TRPML1 blocker | -6 | 11 | 13 | -8 | 10 | 15 | 22 | 49
TRPML1 ag | 0.8 | -0.6 | 0.4 | -0.1 | 0.7 | 0.1 | 0.5 | 0.1
CtBP-E1A inh | . | -2 | 1 | -4 | 4 | 6 | -17 | .
TRPV1 potentiator | -9 | . | 2 | ? | 1 | 1 | -26 | 8
D2 PAM | -4 | -1 | 8 | -15 | -2 | -20 | -15 | -17
Six1-Eya2 blk | -1 | -1 | 1 | -5 | 11 | -2 | -1 | -7

33) CCOC(=O)CCn1nnc(N)n1
34) COc1cccc(-c2ccc3c(c2)N(Cc2cccc(F)c2)C(=O)C(C)S3)c1 (centres undefined)
35) COc1ccc(C2CCc3cc4c(cc3C2=NO)OCO4)cc1OC (centres undefined)
36) COc1ccc(NS(=O)(=O)c2cc(NC(=O)CNC(=O)c3cccc(OC)c3)ccc2C)cc1
37) Cc1ccc(S(=O)(=O)N2CCN(Cc3ccccc3C(F)(F)F)CC2)cc1
Screen / compound no. | 33 | 34 | 35 | 36 | 37
TRPML1 blocker | 21 | . | -8 | -14 | 46
TRPML1 ag | 0.4 | 2.7 | 0.9 | 1.8 | 0.8
CtBP-E1A inh | 4 | 7 | -3 | 2 | 12
TRPV1 potentiator | -15 | . | . | 29 | .
D2 PAM | -5 | -7 | -8 | -28 | -2
Six1-Eya2 blk | 5 | 11 | -3 | 6 | 16
